From PubChem
KCNQ2 block: KCNQ2 channel blockers in CHO-K1 cells – cell-based, FluxOR thallium flux, B-score, primary screen (AID 2156). hit rate 1.1% among 310,000. B-score at 10 µM. O88943. 20 min; hits give low values; only compounds with negative scores are shown here; some inactives read as strong as hits;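 active = fluorescence ratio B-score at most minus 3 library SDs, with starting brightness B-score within 2 library SDs, cut at about -5.5 in these data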
Target sequence (O88943 whole entry, looked up): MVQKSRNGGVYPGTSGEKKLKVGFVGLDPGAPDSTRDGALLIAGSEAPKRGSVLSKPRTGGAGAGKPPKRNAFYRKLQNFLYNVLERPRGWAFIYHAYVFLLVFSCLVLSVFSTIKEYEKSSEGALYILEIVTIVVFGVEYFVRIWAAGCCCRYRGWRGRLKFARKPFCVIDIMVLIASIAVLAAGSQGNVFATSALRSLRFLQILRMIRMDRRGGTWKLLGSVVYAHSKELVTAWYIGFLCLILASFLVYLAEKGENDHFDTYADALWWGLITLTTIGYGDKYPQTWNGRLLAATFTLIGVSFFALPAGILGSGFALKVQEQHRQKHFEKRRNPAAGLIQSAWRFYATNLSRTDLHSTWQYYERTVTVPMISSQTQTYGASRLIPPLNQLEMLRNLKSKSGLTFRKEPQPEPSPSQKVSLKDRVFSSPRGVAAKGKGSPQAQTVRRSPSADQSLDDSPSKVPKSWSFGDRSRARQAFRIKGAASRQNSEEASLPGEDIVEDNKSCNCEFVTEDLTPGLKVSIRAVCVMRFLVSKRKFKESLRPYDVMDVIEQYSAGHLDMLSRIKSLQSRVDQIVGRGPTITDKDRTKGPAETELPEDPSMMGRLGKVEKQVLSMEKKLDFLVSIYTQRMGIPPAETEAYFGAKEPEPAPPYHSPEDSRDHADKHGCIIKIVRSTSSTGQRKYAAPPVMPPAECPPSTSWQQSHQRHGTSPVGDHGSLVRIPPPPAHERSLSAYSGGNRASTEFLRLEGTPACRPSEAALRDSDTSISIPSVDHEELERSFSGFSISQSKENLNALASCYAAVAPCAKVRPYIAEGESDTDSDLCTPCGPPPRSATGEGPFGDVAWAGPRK
KCNQ2 block baseline: second read-out of KCNQ2 block, no call of its own (marks repeat the call); B-score; measured here: initial fluorescence intensity artifact check;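 brightness before thallium and not channel activity; 0 = typical well and far values either way flag optical interference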
* = called active by the depositor; i = inactive.

Each structure is followed by: KCNQ2 block, KCNQ2 block baseline
- COc1ccc(S(=O)(=O)N2CCc3cc4c(cc3C2C)OCCCO4)cc1 (stereo not drawn)
    i, -1.2
- CCC(=O)N1CCc2cc(Br)cc(S(=O)(=O)NCCN3CCCC3)c21
    i, 0.64
- C=C(C)CC1N(c2cccc(OC)c2)C(=O)C2C(C(=O)O)C3C=CC21O3 (stereo not drawn)
    i, -1.4
- OCC(Cc1ccccc1)Nc1c2ccccc2nc2ccccc12 (stereo not drawn)
    i, 5.5
- CN(C)S(=O)(=O)c1cccc(N2C(=O)CC3(CCCCC3)CC2=O)c1
    i, -1.4
- Cc1ccc(CCNS(=O)(=O)c2cc3c(cc2Cl)NC(=O)CO3)cc1
    i, -0.36
- CCCCN(C)CCNC(=O)CN1C(=O)CSc2ccc(S(=O)(=O)N3CCOCC3)cc21
    i, 0.67
- COc1cc(CC(=O)O)ccc1O
    i, -0.11
- O=C(O)C1CC1C(=O)Nc1cc(F)ccc1F (stereo not drawn)
    i, -1.3
- Cc1cccc(C(=O)NCC(=O)NCC(c2cccs2)N2CCOCC2)c1 (stereo not drawn)
    i, 0.69
- Cn1c(N)c(C(C[N+](=O)[O-])c2c(F)cccc2Cl)c(=O)n(C)c1=O (stereo not drawn)
    i, -0.58
- Oc1ccc2c(c1)c1c3n2CCNC3CCC1 (stereo not drawn)
    i, 0.12
- Cc1ccc(N2C(=O)CS(=O)C(c3ccccc3)C2=O)cc1C (stereo not drawn)
    i, 0.87
- O=C1CNC(=S)N1c1nc(-c2ccccc2)cs1
    i, 0.6
- O=C(COC(=O)CCSc1ccc(Cl)cc1)NCc1ccc(Cl)cc1
    i, -0.04
- CCCCN1CC(O)=C(c2nc(-c3ccc(Cl)cc3)cs2)C1=N
    i, 0.99
- COc1ccccc1NC(=O)c1ccccc1NC(=O)c1ccccc1C(=O)O
    i, 0.15
- COc1ccc(C(=O)Nc2ccnn2C2CCN(Cc3cn(C)nc3C)CC2)cc1
    i, 3
- COc1ccccc1C(=O)NNC(=O)c1nn(Cc2ccccc2)c(=O)c2ccccc12
    i, 0.98
- COc1ccc(-n2c(SCc3ccc([N+](=O)[O-])cc3)nnc2-c2ccc(C)cc2)cc1
    i, -0.06
- Cc1cc2c(=O)n(Cc3ccco3)c(SCC(=O)c3ccc(Cl)s3)nc2s1
    i, 0.4
- CCCn1c(C)cc(C(=O)COC(=O)c2cc(S(=O)(=O)NCC(C)C)c(Cl)cc2Cl)c1C
    i, -0.18
- c1ccc(-c2nnsc2-c2ccccc2)cc1
    i, 0.22
- COc1ccc(CCNC(=O)Cn2cc(C(F)(F)F)cc(Cl)c2=O)cc1
    i, 1.6
- Cc1ccc(CCNC(=O)C2CCN(S(=O)(=O)c3ccc4c(c3)oc(=O)n4C)CC2)cc1
    i, -0.06
- COc1ccc(-n2c(C)cc(C(=O)CSc3nnc(-c4ccoc4C)n3C)c2C)cc1
    i, 0.9
- CC1CCc2cc(F)ccc2N1C(=O)CSc1nnc2c3ccccc3n(C)c2n1 (stereo not drawn)
    i, -1.1
- COc1ccc(N/C=C(\C=C\C#N)S(=O)(=O)c2ccccc2)cc1
    i, -0.91
- COc1cc2c(C)nc3onc(-c4ccccc4)c3c2cc1OC
    i, 0.28
- O=C(NCCn1ccc2ccccc21)c1ccc(S(=O)(=O)N2CCOCC2)cc1
    i, 2.9
- COc1cccc(NC(=O)c2ccc3nc(C)sc3c2)c1
    i, 1.1
- O=C(CNC(=O)c1cccc(Br)c1)N/N=C/c1ccc[nH]1
    i, -0.74
- COC(=O)[C@@]1(Cc2ccc(F)cc2)[C@H]2c3cc(C(=O)N4CCCC4)n(Cc4ccc(C(F)(F)F)nc4)c3C[C@H]2CN1C(=O)c1ccccc1
    i, -0.85
- COc1ccc(C(=O)O/N=C/c2ccc(S(=O)(=O)c3ccc(Cl)cc3)nc2)cc1
    i, -0.03
- COc1cc(OC)cc(C(=O)Nc2nnc(Cc3ccc(OC)c(OC)c3)s2)c1
    i, 2.2
- COc1ccccc1NC(=O)c1ccc(S(=O)(=O)N2CCCC(C)C2)cc1 (stereo not drawn)
    i, -1.8
- CCOc1cc(N2CCOCC2)c(OCC)cc1NC(=O)CSc1n[nH]c(N)n1
    i, 0.05
- CCOc1ccc(N(CC(=O)OC)S(=O)(=O)c2ccc(OC)c(OC)c2)cc1
    i, 1.2
- OCCC1CN(CC(c2ccccc2)c2ccccc2)CCN1C1CCCC1 (stereo not drawn)
    i, 1.9
- COc1ccc(S(=O)(=O)N2CCN(CC(=O)NC3CC3)CC2)cc1
    i, 0.39
- Cc1ccc(NC(=S)NCC(O)c2ccccc2)c(C)c1 (stereo not drawn)
    i, 1.5
- CCOC(=O)C(=O)c1c(-c2ccc(C)cc2)nc2ccccn12
    i, -0.03
- Cc1cccn2c(=O)c3cc(C(=O)NCCN4CCOCC4)c(=N)n(CCN4CCOCC4)c3nc12
    i, 2.4
- Cc1ccc(Oc2ccccc2/C=N/O)cc1
    i, 0.24
- COC(=O)[C@@H](Cc1c[nH]c2ccccc12)NC(=O)c1cc(=O)[nH]c2ccccc12
    i, -1.4
- O=C(CCC1CCCCC1)NCCN1C2=NC[C@@H](Cc3ccccc3)N2C[C@H]1Cc1ccc(O)cc1
    i, 0.01
- N#Cc1c2n(c3c(=S)nc[nH]c13)CCCCC2
    i, -0.33
- COc1ccc(S(=O)(=O)Nc2ccc(C(F)(F)F)cc2)cc1OC
    i, -0.23
- CC1CCCCC12NC(=O)N(CC(=O)Nc1ccccc1-c1ccccc1)C2=O (stereo not drawn)
    i, 1.1
- CCOC(=O)C(NC(C)=O)(N1CCc2ccccc2C1)C(F)(F)F (stereo not drawn)
    i, 0.65
- O=C(C1CCC1)N1CCc2cc(S(=O)(=O)NCc3ccccn3)ccc21
    i, -0.24
- Cc1ccc(OCC(=O)N/N=C/c2cn(Cc3ccccc3)c3ccccc23)cc1
    i, 0.88
- COc1ccc(S(=O)(=O)Nc2ccccc2SC)cc1C
    i, 1.1
- Cc1ccc(S(=O)(=O)C2(C(=O)N3CCN(C4CCCCC4)CC3)CC2)cc1
    i, 0.21
- CCOC(=O)c1ccccc1NC(=O)CSc1nnnn1C1CCCCC1
    i, -0.02
- O=C(Nc1ccccc1)N(Cc1ccccc1)C1=NCCS1
    i, -0.44
- Cc1ccc(N2C(=O)CSCC2=O)cc1
    i, 1.2
- CCCn1nc2cc(C(=O)NCC34CC5CC(CC(C5)C3)C4)ccc2c1OCC
    i, -0.02
- CCC(=O)N1C(C(=O)O)CSC1c1ccc(OC)cc1 (stereo not drawn)
    i, -1.4
- COc1ccc(/C=C/c2nc3ccccc3c(=O)o2)cc1
    i, -0.45

Remaining list, next part
Compound,KCNQ2 block,KCNQ2 block baseline
C=CCn1cc(C(=O)NCCN(CC)CC)c(=O)c2cc(S(=O)(=O)N3CCCCCC3)ccc21,i,0.6
COc1cccc(OCCSc2nc3ccccc3c(=O)[nH]2)c1,i,-1.3
CC(C)(C)NC(=O)CSc1nc(O)cc(=O)[nH]1,i,1.3
CCOC(=O)c1c(NC(=O)C(Sc2ccccc2)c2ccccc2)sc(C(=O)N(C)C)c1C (stereo not drawn),-5.8*,0.95*
Cc1cc([N+](=O)[O-])ccc1Nc1nc2ccccc2n2cnnc12,i,0.43
COc1ccccc1NC(=O)C(Sc1ccccc1)c1ccccc1 (stereo not drawn),i,1.5
CC/C(=N\NC(=S)NC(C)C)c1ccc(OC(F)F)cc1,i,0.73
Cc1ccc(Nc2ccccc2)cc1,i,0.89
CN1C(=S)N(c2cccnc2)C(=O)/C1=C\c1ccc(C(C)(C)C)cc1,i,-0.32
CCCn1c(SCC(=O)c2[nH]c(C)c(C(C)=O)c2C)n[nH]c1=O,i,-0.33
O=C(CSc1nnc(-c2ccco2)o1)NC(=O)C1COc2ccccc2O1 (stereo not drawn),i,0.16
COC(=O)c1ccc(COc2ccc3c4c(c(=O)oc3c2)CCC4)o1,i,-1.4
S=C(Nc1ccc2nsnc2c1)N1CCCC1,i,-0.01
O=C(CC1(O)C(=O)Nc2ccccc21)c1cccnc1 (stereo not drawn),i,-0.95
NS(=O)(=O)c1ccc(CNC(=O)CNC(=O)c2ccc(F)cc2)cc1,i,2.3
NC(=O)c1ccc(NC(=O)COC(=O)C(Cc2ccccc2)NC(=O)c2ccccc2)cc1 (stereo not drawn),i,3.5
CC(C)c1ccc2[nH]c(O)c(N=NC(=O)c3cccc(S(=O)(=O)N4CCCCC4)c3)c2c1,i,-1.6
Cc1cc(/C=C(\C#N)C(=O)Nc2ccccc2)c(C)n1-c1ccc2c(c1)OCO2,i,0.51
O=C(Nc1ccccc1Cl)O/N=C(/c1ccccc1)c1ccccn1,i,1.8
COc1ccc(/C=C2\CCn3c2nc2cc(C(=O)O)ccc2c3=O)cc1OC,i,0.72
COc1ccc(N2CCN(CCCNC(=O)c3ccc(CS(=O)(=O)c4ccc(OC)cc4)o3)CC2)cc1,i,-2.4
CCN1C(=O)C2(C(C#N)=C(N)Oc3n[nH]c(-c4ccccc4)c32)c2ccccc21 (stereo not drawn),i,-0.72
O=C(C[n+]1ccc(/C=N/O)cc1)NCc1ccccc1,i,3.9
NS(=O)(=O)c1cccc(-n2cnnn2)c1,i,1.8
C=CCn1c(SCc2nc3sc4c(c3c(=O)[nH]2)CCCC4)nc2ccccc2c1=O,i,0.06
COc1ccc(NC(=O)c2cc3c(=O)n4ccccc4nc3n2C)c(OC)c1,i,-1.3
O=C(CSc1nc2c(c(=O)n1-c1ccccc1)SCC2)N1CCOCC1,i,-0.58
CC(=O)c1ccc(N2CCN(C(=O)c3cc(-c4ccc5c(c4)OCO5)nc4ccccc34)CC2)cc1,i,-1
COc1cccc(CNc2nnnn2C)c1OC,i,1.1
Cc1ccc(NC(=O)/C(C#N)=C/c2cc(C)n(-c3ccc(N4CCOCC4)c([N+](=O)[O-])c3)c2C)c(C)c1,i,-0.6
CN(C)C(=O)c1nc2ccc(Cl)cn2c1CN1CCCC(OCc2ccccc2)C1 (stereo not drawn),i,0.85
Nc1c2c(nc3ccc(Br)cc13)N(Cc1ccccc1)CC2,i,-0.04
Cc1c(Cl)cccc1NC(=O)CN1CCN(CCN=CC2=C(O)CC(c3ccccc3)CC2=O)CC1 (stereo not drawn),i,-3.8
O=C(NNc1c(Cl)cccc1Cl)c1ccno1,i,1.3
Cc1cccc(NCc2nc(SCC(=O)Nc3ccccc3)n[nH]2)c1,i,-0.23
CCOC(=O)N1C=CC(C)=C[C@@H]2[C@@H](N3C(=O)c4ccccc4C3=O)C(=O)N21,i,0.16
O=C1NC(=S)N/C1=C\c1cccnc1,i,1.3
Cc1cccc(NC(=O)C2CCN(c3nc(C)cc(C)n3)CC2)c1,i,0.31
O=c1[nH]c(C2CCN(S(=O)(=O)c3ccc([N+](=O)[O-])cc3)CC2)nc2c1nnn2Cc1ccccc1,i,0.51
CCCNC(=O)C1CCN(S(=O)(=O)c2ccc3c(c2)OCCO3)CC1,i,0.64

Structural class, those above containing fluorine (nine)
Compound,KCNQ2 block,KCNQ2 block baseline
O=C(O)C1CC1C(=O)Nc1cc(F)ccc1F (stereo not drawn),i,-1.3
Cn1c(N)c(C(C[N+](=O)[O-])c2c(F)cccc2Cl)c(=O)n(C)c1=O (stereo not drawn),i,-0.58
COc1ccc(CCNC(=O)Cn2cc(C(F)(F)F)cc(Cl)c2=O)cc1,i,1.6
CC1CCc2cc(F)ccc2N1C(=O)CSc1nnc2c3ccccc3n(C)c2n1 (stereo not drawn),i,-1.1
COC(=O)[C@@]1(Cc2ccc(F)cc2)[C@H]2c3cc(C(=O)N4CCCC4)n(Cc4ccc(C(F)(F)F)nc4)c3C[C@H]2CN1C(=O)c1ccccc1,i,-0.85
COc1ccc(S(=O)(=O)Nc2ccc(C(F)(F)F)cc2)cc1OC,i,-0.23
CCOC(=O)C(NC(C)=O)(N1CCc2ccccc2C1)C(F)(F)F (stereo not drawn),i,0.65
CC/C(=N\NC(=S)NC(C)C)c1ccc(OC(F)F)cc1,i,0.73
NS(=O)(=O)c1ccc(CNC(=O)CNC(=O)c2ccc(F)cc2)cc1,i,2.3

Later entries:
Compound,KCNQ2 block,KCNQ2 block baseline
C=CCn1c(C)cc(C(=O)COC(=O)CNC(=O)c2ccccc2)c1C,i,1.6
O=C(NCc1ccncc1)C1CCN(S(=O)(=O)c2ccc(F)cc2)CC1,i,-0.05
COc1ccc(NC(=O)c2cc3nc(-c4ccccc4)cc(-c4ccccc4)n3n2)c(OC)c1,i,0.04
CCn1cc(C(=O)NC(C)C23CC4CC(CC(C4)C2)C3)cn1 (stereo not drawn),i,0.16
O=C(CSc1nc2ccccc2c(=O)n1CCCN1CCOCC1)NC12CC3CC(CC(C3)C1)C2,i,-2.7
O=C(Cn1nnc(-c2cc(Cl)ccc2-n2cnnn2)n1)N1CCCc2ccccc21,i,-1.2
COc1ccc(CN(CC2CCC(C(=O)O)CC2)C(=S)Nc2ccc(C)c(Cl)c2)cc1 (stereo not drawn),i,-0.54
COC(=O)C1=C(C)Nc2c(c(=O)n(C)c(=O)n2C)C1c1cccs1 (stereo not drawn),i,-1.6
O=C(NCCN1CCOCC1)C1CCC(CNS(=O)(=O)c2ccccc2)CC1 (stereo not drawn),i,-1.1
CC(Sc1ccccc1)C(=O)NCC1COc2ccccc2O1 (stereo not drawn),i,0.97
O=C(Nc1nnc(-c2ccc(Br)cc2)o1)c1cccc(N2C(=O)CCC2=O)c1,i,-0.2
Cn1c(=O)c2[nH]c(SCC(=O)c3ccc(F)cc3)nc2n(C)c1=O,i,-1.7
S=C(NCCc1ccccn1)Nc1cccc(Cl)c1,i,-0.75
O=C(CCCOc1ccc(Cl)cc1Cl)Nc1ccc(O)cc1C(=O)O,i,-0.2
CCN/N=C(\Cc1nc2ccccc2[nH]1)c1ccccc1,i,-0.41

A portion of the library; rates above refer to the full screens.
